eIF4H inh = human eIF4H binding inhibitors, primary screen, translation initiation inhibitor project, biochemical, uHTS, fluorescence polarization; Eukaryotic translation initiation factor 4H (Homo sapiens), Q15056; eIF4H fluorescence polarization binding assay; inhibition, % at 35 µM; 290,000 compounds, 0.94% hits; AID 2012, 2009;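 active means 50% or more with normal probe brightness, or confirmed in later tests; inconclusive means above 50% with abnormal brightness, or retests that disagree; inactive means below 50% or failed in later tests; about a fifth of its hits are not listed in these tables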;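 further: calls also rest on retests at 20 µM and on dose response follow-up; 0% = protein and probe with vehicle and 100% = probe without protein; strong numbers were not always called active; many hits fall short of the cut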
UUG fidelity = modulators of yeast start codon fidelity, primary screen, whole organism, S. cerevisiae, single point, plate reader; activity score, % at 18.7 µM; S. cerevisiae UUG-firefly luciferase reporter, luminescence/redox ratio; 350,000 compounds, 0.13% hits;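 active means replicate mean at a twofold rise or more, about +100% in these data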;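 further: firefly luciferase made from a UUG start codon reports start codon fidelity; reporter light over untreated wells divided by growth signal over untreated wells; some hits fall short of that in this replicate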
Env fusion inh = inhibitors of HIV-1 Env-driven cell-cell fusion, primary screen, HeLa-JRFL effector, CEM21 target cells, luciferase | inhibition, % at 12.3 µM | 360,000 compounds, 1.1% hits | AID 651610, 2012;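 active means mean replicate inhibition score of at least 50 and every replicate individually at or above 50; inconclusive means only one of the two criteria met; inactive means mean below 50 and not all replicates reaching 50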;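 further: 0% = plate neutral controls and 100% = maraviroc near 300 nM; one replicate is shown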
Rce1 inhib = yeast Rce1p protease inhibitors, primary screen, biochemical, fluorescence, cell-free homogeneous | calls only | 290,000 compounds, 0.27% hits | AID 2563, 2010 | yeast membranes, quenched prenylated peptide cleavage fluorescence | CAAX prenyl protease 2 (Saccharomyces cerevisiae (strain ATCC 204508 / S288c)), Q03530;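 active means fall in fluorescence gain of 50% or more versus controls, with final raw signal at or below 3038400; inconclusive means same 50% fall but final raw signal above 3038400; inactive means fall in fluorescence gain under 50%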;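 further: plate controls were neutral control wells for no effect and wells lacking membranes for full effect; tested at 10 µM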
PABP polyA inh = PABP poly(A) RNA binding inhibitors, primary screen, biochemical, fluorescence polarization, uHTS; inhibition, % at 35 µM; 290,000 compounds, 1% hits;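 active means 50% or more with normal probe brightness, or confirmed in later tests; inconclusive means above 50% with abnormal brightness, or retests that disagree; inactive means below 50% or failed in later tests; about a fifth of its hits are not listed in these tables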;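 further: calls also rest on retests at 20 µM and on dose response follow-up; controls were probe without protein and protein plus probe with vehicle; some compounds called inactive have numbers as strong as hits; many hits fall short of the cut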
Target sequence (P11940 whole entry, looked up): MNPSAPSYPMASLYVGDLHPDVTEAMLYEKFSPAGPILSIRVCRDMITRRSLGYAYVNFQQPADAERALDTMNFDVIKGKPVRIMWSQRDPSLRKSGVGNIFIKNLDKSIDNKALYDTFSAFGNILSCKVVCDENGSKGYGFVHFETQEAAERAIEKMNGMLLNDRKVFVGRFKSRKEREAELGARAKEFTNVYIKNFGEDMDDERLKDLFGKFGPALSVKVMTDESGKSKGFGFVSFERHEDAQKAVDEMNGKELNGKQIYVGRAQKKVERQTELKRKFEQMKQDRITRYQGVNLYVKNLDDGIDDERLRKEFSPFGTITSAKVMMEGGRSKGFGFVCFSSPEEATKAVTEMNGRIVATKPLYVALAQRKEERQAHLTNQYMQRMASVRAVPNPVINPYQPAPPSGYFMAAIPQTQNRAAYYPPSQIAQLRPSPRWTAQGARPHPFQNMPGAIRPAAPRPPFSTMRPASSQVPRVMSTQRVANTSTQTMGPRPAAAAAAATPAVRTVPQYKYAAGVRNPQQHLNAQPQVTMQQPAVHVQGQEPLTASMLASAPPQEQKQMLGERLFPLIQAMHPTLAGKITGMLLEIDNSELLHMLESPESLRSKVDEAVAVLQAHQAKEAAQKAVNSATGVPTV
MT1-MMP act inh = blockers of MT1-MMP proenzyme processing, primary screen, HT1080 RFP-PRO-GFP cells, GFP/RFP fluorescence. Matrix metalloproteinase-14 (Homo sapiens), P50281. GFP/RFP ratio fluorescence, overnight; percent of plate control window, DMSO zero. GFP/RFP ratio change, % at 20 µM. 360,000 compounds, 0.061% hits. AID 651647, 2012;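 active means GFP/RFP ratio change of at least 30% with cell ATP level not reduced by more than half and red fluorescence within 50% of control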; further: strong numbers were not always called active
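Assay system: HT1080 RFP-PRO-GFP cells. Benchmarks: DMSO vehicle wells and RFP-L50D-GFP reporter cell wells. Times: overnight cell settling, then overnight compound exposure, 37 °C, 5% CO2. Compound: 20 µM single dose, 1% DMSO. Read-out basis: GFP/RFP fluorescence ratio.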
CSC inhib = cancer stem cell viability inhibitors, primary screen, luminescence; cancer stem cell-like cells viability; AID 2717, 2010; 300,000 compounds, 1.1% hits; inhibition, % at 7.5 µM;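 active means mean at 75% or more and at least half the replicates too; inconclusive means mean and replicates disagree; tested in HMLE shEcad cells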;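 further: 0% = median of negative and 100% = median of positive control wells; the first replicate is given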
eIF4H inh retest = also measured in eIF4H inh; calls as there; inhibition, %; compound at 20 µM; confirmation average;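 mean of two retest wells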
PABP polyA inh retest = second read-out of PABP polyA inh, no call of its own (marks repeat the call); inhibition, %; compound at 20 µM; confirmation repeats;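 mean of two retest wells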
MT1-MMP act inh RFP = also measured in MT1-MMP act inh; calls as there; RFP signal change, %; measured here: RFP expression control read;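 0 = vehicle wells; hits needed this value within 50% of zero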
Numbers without * were called inactive; i = inactive; ? = inconclusive; · = no result given. This is a subset; rates above refer to the full screens.

Preview (4 entries):
SMILES	eIF4H inh	UUG fidelity	Env fusion inh	Rce1 inhib	PABP polyA inh	MT1-MMP act inh	MT1-MMP act inh RFP	CSC inhib	others
CN(C)/C=C/C(=O)c1cnc(-c2ccccc2Cl)s1	-2	·	-41	i	51	-7	-1	3	eIF4H inh retest=19;PABP polyA inh retest=24
Cc1nc(C)c(/C(O)=C/c2nc3ccc([N+](=O)[O-])cc3oc2=O)o1	-1	·	·	i	-10	·	·	4
C=CCOc1ccccc1/C=N/O	-2	-8	-5	i	3	-1	3	-11
CC1CN(S(=O)(=O)c2ccc(C(=O)O)cc2)CC(C)O1 (configuration not stated)	5	·	15	i	13	0	3	-21

Results, from the first entry:
SMILES	eIF4H inh	UUG fidelity	Env fusion inh	Rce1 inhib	PABP polyA inh	MT1-MMP act inh	MT1-MMP act inh RFP	CSC inhib	others
CN(C)/C=C/C(=O)c1cnc(-c2ccccc2Cl)s1	-2	·	-41	i	51	-7	-1	3	eIF4H inh retest=19;PABP polyA inh retest=24
Cc1nc(C)c(/C(O)=C/c2nc3ccc([N+](=O)[O-])cc3oc2=O)o1	-1	·	·	i	-10	·	·	4
C=CCOc1ccccc1/C=N/O	-2	-8	-5	i	3	-1	3	-11
CC1CN(S(=O)(=O)c2ccc(C(=O)O)cc2)CC(C)O1 (configuration not stated)	5	·	15	i	13	0	3	-21
CC(=O)c1ccccc1OC(=O)COc1ccc(Cl)cc1C	-1	·	-15	i	9	·	·	1
Nn1c(SCC(=O)N2CCOCC2)nnc1C1CC1	-3	4	-11	i	-18	2	0	8
CCOC(=O)c1nc2sc3c(c2c(=O)[nH]1)CCCC3	?	·	·	i	5.5*	5	4	-9	PABP polyA inh retest=72*
Cc1ccc(C(=O)N(CN2CCCC2=O)c2ccc(F)cc2)cc1	3	-18	-2	i	-1	-3	0	-7
COc1ccc(OC)c(NC(=O)C2CCN(c3cc(-c4ccccc4)nc4ncnn34)CC2)c1	2	-6	4	i	3	1	-11	·
Cc1nccn1-c1cc(C(C)(C)C)nc2c(-c3ccccc3)cnn12	-1	·	0	·	3	-5	3	9
COc1ccc(C)cc1NC(=S)NC12CN3CN(CN(C3)C1)C2	-4	·	·	i	-2	·	·	-15
COc1ccc(CC(=O)Nc2ccc(S(=O)(=O)Nc3cc(C)nc(C)n3)cc2)cc1OC	·	-4	16	·	·	1	7	·
COCCN1CN(S(=O)(=O)c2ccc(Cl)cc2)c2nc3ccccc3nc21	-1	·	·	i	3	-1	0	23
COc1ccccc1/C=C/C=N/NC(=O)CCn1nnc2ccccc21	-21	-9	8	i	-22	-3	-2	3
Cc1cc(C)c(S(=O)(=O)N2CCN(C(=O)c3cccs3)CC2)c(C)c1	2	14	14	i	0	2	-3	-6
CCC(=O)Oc1ccc2c(C)cc(=O)oc2c1C(=O)c1ccccc1	-3	-8	·	i	-2	4	10	-2
CSc1nnc(CNC(=O)c2ccccc2)n1-c1cccc(C)c1	2	-19	-13	i	8	2	5	7
Cc1ccc(-n2ncc3c(NNC(=O)c4ccco4)ncnc32)cc1C	5	-8	-30	i	10	3	1	-4
COc1ccccc1C(=O)NC(=O)COC(=O)c1ccc([N+](=O)[O-])cc1Cl	·	·	-24	i	·	-3	3	0
Cc1cc(NC(=O)CCC(=O)NNC(=O)c2ccc(C(C)(C)C)cc2)no1	-6	-16	-3	i	45	4	2	-17
COc1ccc(C)cc1S(=O)(=O)N(CC(N)=O)Cc1ccccc1	1	2	·	i	8	·	·	-5
COc1cccc(CN2CCNC(=O)C2CC(=O)N(C)CC2CCOCC2)c1OC (configuration not stated)	-4	-9	-3	i	-4	5	6	-1
CCN(CC)C(=O)C1=C(C)N(Cc2ccc(C(C)(C)C)cc2)C(=O)C(CC(=O)NC2CC2)C1 (configuration not stated)	·	-1	-29	·	·	4	10	·
CCOC(=O)N1CCN(C(=O)Cn2nc(C)n3nc(-c4ccccc4)cc3c2=O)CC1	-9	-3	0	i	4	-2	-1	-6
CCN1C(=O)[C@H]2[C@H]3CN=C(SCc4ccc(Cl)cc4)N3[C@@](C)(C(=O)OC)[C@H]2C1=O	·	-14	34	·	·	1	3	·
CCN(C(=O)COC(=O)/C=C/c1ccco1)c1c(N)n(Cc2ccccc2)c(=O)[nH]c1=O	·	-2	-4	·	·	12	8	-6
O=C(CC1Sc2ccccc2NC1=O)OCc1cc(=O)oc2cc(O)ccc12 (configuration not stated)	?	·	·	i	?	-5	-4	9
Cc1nc(SCc2nc3ccccc3[nH]2)c2oc3cc(Br)ccc3c2n1	·	-2	·	·	·	-17	-7	15
CCCCCCN1C[C@@H](O)[C@H](n2cc(C3CC3)nn2)C[C@@H]1c1ccc(Cl)cc1	·	-14	0	·	·	-5	-12	·
Cc1ccccc1NC(=S)Nc1cccc2cnccc12	22	-31	-5	i	10	0	-3	13
CCn1cc(C(=O)N2CCN(c3ccc(OC)cc3)CC2)c(=O)c2cc(S(=O)(=O)N3CCCCC3)ccc21	0	·	17	i	-4	1	0	-2
Cc1ccsc1C(=O)N1CCC1(C)C(=O)NS(=O)(=O)c1ccc(C#N)cc1 (configuration not stated)	·	-1	21	·	·	2	6	·
Cc1ccccc1NC(=S)NC(C)CCc1ccccc1 (configuration not stated)	-5	-7	4	i	121	-9	-5	-1	eIF4H inh retest=28;PABP polyA inh retest=1
Cc1cnccc1CN(C)C(=O)C1CCC(=O)N(Cc2ccccc2F)C1 (configuration not stated)	3	-4	-1	i	-10	1	3	-9
CCN(CC)S(=O)(=O)c1ccc(-c2nnc(SCC(=O)N3CCc4ccccc43)o2)cc1	-13	-16	·	i	-1	-6	-1	-6
Cc1c(CC(=O)O)c(=O)oc2cc(OCc3ccc(F)cc3F)ccc12	2	-21	-13	i	7	1	1	-13
COC(=O)c1ccc(CNC(=O)CSc2nnc(COc3ccccc3)n2C)o1	1	-13	·	i	10	3	2	-9
O=C(NC(=S)NCc1cccnc1)c1ccccc1[N+](=O)[O-]	15	-21	-4	i	2	-1	-3	-4
Cc1cccc(C)c1OCCN1C(=O)NC(C)(c2ccccc2)C1=O (configuration not stated)	-8	·	-11	i	-4	1	-2	-3
Cc1cc2c(c(C)c1CCO[C@@H]1O[C@H](CO)[C@@H](O)[C@H](O)[C@H]1O)C(=O)[C@@H](C)[C@@H]2O	·	-2	-469	·	·	-2	2	16
COc1ccc(C(=O)COC(=O)c2sc(C)nc2C)cc1F	·	-9	-13	·	·	-1	-14	-11
C1=C(CCNc2ncnc3c2[nH]c2ccccc23)CCCC1	-6	·	41	·	-6	-11	-29	77*
CN1C(=O)C(C)(C)c2cc(S(=O)(=O)NCCc3ccc(Cl)cc3)ccc21	-1	24	?	i	-6	0	1	·
Cc1ccc(-n2ncc3c(NCc4ccccn4)ncnc32)c(C)c1	4	-14	·	i	0	2	-6	-6
N#CCC(=O)Nc1ccc(C(=O)OCC(=O)NC(=O)Cc2ccccc2)cc1	·	4	-120	i	·	-2	7	-19
COc1ccccc1/C=C/C=N/NC(=O)c1ccc(=O)n(C)c1	-15	-9	-7	i	7	2	-1	-7
CCOc1cc2nc(-c3ccc(OC)c(OC)c3)nc(NCCCN3CCOCC3)c2cc1OC	-3	-5	-111	i	24	12	8	13
CCCCNC(=O)CN1CCN(Cc2ccc3cc(OC)ccc3c2)CC1	12	-9	6	i	5	2	-5	-9
Cc1cc(C)c2nc(C)cc(Nc3ccc(C(=O)N(C)C)cc3)c2c1	2	·	·	i	-6	·	·	-1
O=C(NCCCNC(=O)c1ccco1)c1ccc(Cl)cc1	-8	-30	-1	i	-1	3	2	-3
O=C(Nc1ccccc1)/C(=C/c1ccc(O)cc1)NC(=O)c1ccco1	0	-28	-6	i	11	0	3	-5
CC(=O)Oc1ccc2ccccc2c1C(NC(=O)Cc1ccccc1)c1ccccc1 (configuration not stated)	0	-5	-75	i	6	-16	-17	55
COc1ccc(NC(=O)NS(=O)(=O)c2ccc(C)cc2)cn1	?	-17	8	i	?	-164	2	-4
CC1=C(C(=O)N(C)C)CC(CC(=O)NC2CCCC2)C(=O)N1CCC1=CCCCC1 (configuration not stated)	·	-6	-78	·	·	-2	2	·
CC(C)CN1CCC(=O)N([C@H](CO)c2ccccc2)CC1	-6	·	-21	i	5	·	·	-15
O=C(NC(=S)Nc1cccc(NC(=S)NC(=O)c2ccco2)n1)c1ccco1	9	·	-3	i	27	-4	2	-6
O=C(CCn1c(=O)c2cccn2c2ccccc21)Nc1ccc(F)cc1	-7	-8	6	i	0	0	3	2
O=C(CN1CCCCC1)Nc1nnc(-c2ccc([N+](=O)[O-])cc2)s1	28	-12	·	i	0	0	-8	5
COc1ccccc1NC(=O)c1cc2n(n1)C(C(F)(F)F)CC(c1ccc3c(c1)OCO3)N2 (configuration not stated)	-6	·	·	i	-5	-11	-7	42
O=C(COC(=O)c1ccccc1O)NCc1ccco1	·	·	-5	·	·	-3	-2	-17

Further entries follow.
SMILES	eIF4H inh	UUG fidelity	Env fusion inh	Rce1 inhib	PABP polyA inh	MT1-MMP act inh	MT1-MMP act inh RFP	CSC inhib	others
Cc1nnc2ccc(-c3ccc(NC(=O)Cc4cccs4)cc3)nn12	18	·	-15	i	-11	5	5	-11
CCOC(=O)C1=C(O)/C(=C\c2ccc(OC)c(OC)c2)N=C1C	43	-13	·	i	30	-4	2	-5
CN1CCN(c2ccc(NC(=O)c3cc([N+](=O)[O-])ccc3N3CCOCC3)cc2)CC1	-5	1	-10	i	-15	-3	-2	-9
CC(=O)Nc1nnc(SCc2ccc(C(=O)Nc3ccccc3F)cc2)s1	6	·	-10	i	44	-1	-5	-5
Cc1ccc(NC(=S)N2CCN(S(=O)(=O)c3ccccc3)CC2)cc1C	-1	-23	-3	i	3	-2	-1	-12
O=C1CC(N(O)c2ccccc2)C(=O)N1c1cc(Cl)cc(Cl)c1 (configuration not stated)	-5	-21	6	i	6	13	9	9
Cc1occc1C(=O)N/N=C/c1ccc(Cl)c([N+](=O)[O-])c1	-6	·	-7	i	-7	1	1	-7
CN(C(=O)CSc1cc(C(=O)c2nccn2C)c2ccccc2n1)c1ccccc1	-3	·	-14	i	10	0	-10	·
O=C(c1ccccc1)N1CCN(c2ccccc2)CC1	·	-42	-5	·	·	-4	0	·
Cc1cc(C(F)(F)F)nn1C(=O)c1cccnc1Cl	5	-14	·	i	20	2	4	-8
CCN1CCN(C(=O)Cn2ncc3c([nH]c4ccc(C)cc43)c2=O)CC1	-4	-4	6	i	-4	0	3	-17
CCOC(=O)C1(C)CCCN(C(=O)c2cccc(OC(F)(F)F)c2)C1 (configuration not stated)	·	-19	15	·	·	2	-1	·
COC(=O)c1[nH]c2ccc(Br)cc2c1NC(=O)Oc1ccccc1	-3	-18	-105	i	-4	-3	-1	-11
COc1ccc(S(=O)(=O)N2CCCCC2)cc1NC(=O)C1CCCO1 (configuration not stated)	2	·	4	i	-1	3	3	-33
O=c1[nH]c(=O)n(Cc2ccc(Oc3ccccc3)cc2)cc1Br	2	·	21	i	-3	4	-12	-13
